VACV Venus inh – qHTS for Stage-Specific Inhibitors of Vaccinia Orthopoxvirus: Venus Reporter Primary qHTS. Vaccinia virus Venus reporter expression, fluorescence. Potency, µM (doses to about 36.5 µM), inactives show top-dose activity change, negative = inhibition, actives largely listed as inhibitors. actives 0.46% (n = 330,000). AID 720580, 2013; active means well fitted inhibition curve with a large enough effect; inconclusive means small, poorly fitted or top-dose-only effect; inactive means no such curve, though single readings can be large or run the other way; tested in A549 cells; further: nearly all actives have a fitted effect of over 30% in size; inactives centre near -10
VACV mCherry inh – qHTS for Stage-Specific Inhibitors of Vaccinia Orthopoxvirus: mCherry Reporter Primary qHTS; Potency, µM (doses to about 36.5 µM), for inactives: top-dose activity change, negative = inhibition, hits mostly inhibitors; AID 720579, 2013; actives 0.63% (n = 310,000); Vaccinia virus mCherry reporter infection, fluorescence; about a quarter of the inactives have no number; active = well fitted inhibition curve with a large enough effect; inconclusive = small, poorly fitted or top-dose-only effect; inactive = no such curve, though single readings can be large or run the other way; tested in A549 cells; further: nearly all actives have a fitted effect of over 35% in size; inactives centre near -10
Numbers without * were called inactive; i = inactive; ? = inconclusive; . = not tested or not shown; [ ] = another dose, or the depositor's remark. On the % scale 0 is the no-effect control and ±100 the full control effect; potency means the concentration at half of the fitted maximal effect. Rows were taken by chance. Share with any hit: about 0.82%.

Compound	VACV mCherry inh	VACV Venus inh
Cc1cc(C(=O)NNC2CC(=O)N(c3ccc4ccccc4c3)C2=O)c(C)o1 (stereo not drawn)	i	-8.6%
CCCc1nc2oc3cc(OC)ccc3c(=O)c2c(=O)n1Cc1ccco1	-11.7%	1.4%
O=C(Nc1nnc(C2COc3ccccc3O2)o1)c1ccc(F)cc1 (stereo not drawn)	?	?
Oc1ccc(Cl)cc1CNc1ccccn1	i	-17.4%
Nc1c(-c2cccs2)cnc2c(-c3ccc(F)cc3)cnn12	-10.5%	-16.4%
COc1ccc2c(C)cc(SCC(=O)NC3CCCCC3)nc2c1	i	0.0%
CN(C)C(=O)c1ccc(NC(=O)COC(=O)C2CCN(S(=O)(=O)c3ccc4c(c3)OCCO4)CC2)cc1	-15.1%	-10.2%
C#CC(C)(CC)NC(=O)Cn1nnc(-c2ccc(OCc3c(F)cccc3Cl)cc2)n1 (stereo not drawn)	-23.4%	-27.4%
CC1CC(C)CN(c2ncnc3c2cnn3-c2ccc(Cl)cc2)C1 (stereo not drawn)	i	-12.0%
COc1ccc([N+](=O)[O-])cc1NC(=S)NC(NC(=O)C(c1ccccc1)c1ccccc1)C(Cl)(Cl)Cl (stereo not drawn)	?	?
CCOC(=O)C1CCCN(C(=O)CCC(=O)Nc2ccc3nc(N4CCOCC4)cc(C)c3c2)C1 (stereo not drawn)	-16.5%	-14.6%
COc1ccc(C(O)c2ncc(-c3cccc(OC)c3)[nH]2)cc1 (stereo not drawn)	-16.1%	-9.4%

Whole records, quoted from the list.
Oc1ccc(Cl)cc1CNc1ccccn1 reads VACV mCherry inh = i; VACV Venus inh = -17.4%
O=C(Nc1nnc(C2COc3ccccc3O2)o1)c1ccc(F)cc1 (stereo not drawn) reads VACV mCherry inh = ?; VACV Venus inh = ?

The results go on:
Compound	VACV mCherry inh	VACV Venus inh
Cc1ccc(C(=O)OCC(=O)NCc2cccc(Cl)c2)cc1S(=O)(=O)N1CCCCC1	-8.0%	-26.5%
COC(=O)C1C/C(=N/NS(=O)(=O)c2ccc(C)cc2)CS1 (stereo not drawn)	-1.8%	-8.1%
O=C(CSc1nnc(CN2CCOCC2)n1-c1ccccc1)N1CCc2ccccc21	-13.0%	-6.7%
Cc1ccc(CSc2nnc(-c3ccco3)o2)cc1	-13.2%	-5.5%
Cc1cc(C(=O)Nc2ccc(N3CCCCC3)cc2)no1	i	-1.6%
CCOC(=O)N1CCN(C(=O)Nc2sc3nc4n(c(=O)c3c2C)CCC(C)CC4)CC1 (stereo not drawn)	-6.1%	0.0%
O=C(CSc1nnnn1-c1ccc(Cl)cc1)NC(=O)Nc1ccc2c(c1)OCCO2	-6.0%	-13.8%
CCc1cc(C(=O)N2CCCC(C(=O)c3cccc4ccccc34)C2)n(C)n1 (stereo not drawn)	-15.3%	-23.1%
Cc1cc(C)n2nc(-c3cccc(Br)c3)cc2n1	-8.8%	-11.2%
CCN(CC)CCOC(=O)c1ccc(NC(=O)c2nn(-c3ccc(C)cc3)c(=O)c3c2c2ccccc2n3C)cc1	5.62µM*	5.01µM*
COc1ccccc1N(CC(=O)NC1CCCCC1)S(=O)(=O)c1ccccc1	-28.1%	-9.6%
Cc1ccc2c(c1)C1CN(C)CCC1N2C(=O)COc1ccc(N(C)S(=O)(=O)c2cccs2)cc1 (stereo not drawn)	?	-10.9%
CCOc1ccc(N(CC(=O)NC2CCCCC2)C(=O)CCC(=O)Nc2nccs2)cc1	7.3%	0.6%
CCCCN1C(=O)C(CC(=O)NCCc2ccccn2)CC(C(=O)N(CC)CC)=C1C (stereo not drawn)	-8.6%	-10.9%
Cc1ccc(C(=O)N2CCc3ccccc3C2)cc1S(=O)(=O)N1CCOCC1	-17.8%	-14.2%
CCC(CO)n1cnnc1-c1ccncc1 (stereo not drawn)	-13.0%	-16.0%
COc1ccc(NC(=O)CSC2=Nc3ccccc3C3=NC(CCC(=O)NCc4ccc(F)cc4)C(=O)N23)cc1Cl (stereo not drawn)	-8.6%	-2.7%
CC(C)Cn1c(N)c(C(=O)COC(=O)c2cccc(Cl)c2)c(=O)n(C)c1=O	-19.0%	-12.9%
COc1ccc(/C=C2\SC(=S)N(CC3CCCO3)C2=O)cc1 (stereo not drawn)	-16.8%	-4.2%
COc1ccccc1[C@H]1C(c2cccc(Cl)c2)=NN(c2ccccc2)[C@@H]1CO	-28.5%	-25.8%
CCOC(=O)CSc1[nH]c(=O)cc(C)c1C#N	-4.5%	-0.9%
CC(=O)Oc1ccc2c(c1)CCC1C2CCC2(C)C(OC(C)=O)CCC12 (stereo not drawn)	-13.2%	-2.2%
CCn1c(N2CCN(S(=O)(=O)CC)CC2)nc2ccccc21	1.5%	-7.0%
COCc1c(C#N)c(NCc2cc(OC)c(OC)c(OC)c2)nc(C)c1[N+](=O)[O-]	-0.8%	-21.1%
O=C(CCS(=O)(=O)c1ccccc1)OCc1ccc([N+](=O)[O-])cc1	i	-16.5%
CCOC(=O)c1ccc(N=C(c2ccccc2)c2c(O)n(C)c(=O)n(C)c2=O)cc1	1.0%	3.2%
Cc1ccc(NS(=O)(=O)c2ccc(NC(=O)c3ccc(-c4ccccc4)cc3)cc2)c(C)c1	-21.8%	-19.2%
COC(=O)c1ccccc1NC(=O)COC(=O)Cc1ccc(S(=O)(=O)N2CCOCC2)s1	-15.9%	-11.9%
CC(=O)c1cccc(NC(=O)N2CCCC2C(=O)NC2CCCCC2)c1 (stereo not drawn)	-6.0%	1.6%
COc1cc(NC(=O)COc2ccc(-n3cnnn3)cc2)cc(OC)c1OC	i	-11.1%
Cc1cccc(C)c1NC(=S)Nc1c(C)n(C)n(-c2ccccc2)c1=O	-17.6%	-13.5%
O=C(Nc1ccccc1)Nc1nnc(SCC(=O)N2CCCCC2)s1	-7.6%[7.34 µM]	-6.7%[7.34 µM]
ON1C2CCCCC2N(O)C1c1ccccc1 (stereo not drawn)	-7.5%	-10.5%
CCOC(=O)c1sc(SC)nc1N	i	-14.7%
COc1ccc(C2C(C(=O)c3ccccc3)=C(C)Nc3nc4ccccc4n32)c(OC)c1 (stereo not drawn)	-9.1%	-27.0%
Cc1cc(=O)oc2cc(OCC(=O)Nc3c(C)n(C)n(-c4ccccc4)c3=O)c(Cl)cc12	-13.7%	-9.4%
CCOc1ccc2c3c(c(=O)oc2c1OCC)CCCC3	.	-28.8%
Cc1cc2oc(C(=O)Nc3ccc(S(=O)(=O)N4CCCCCC4)cc3)cc(=O)c2cc1C	-6.3%	-14.3%
O=C(Nc1ccc(Cl)cc1C(=O)NCc1cccnc1)c1ccc(Cl)cc1Cl	0.0%	?
COc1ccc(C)cc1Nc1c2c(nc3nc(-c4cccs4)nn13)CCCC2	-5.0%	6.7%
CC(C)NC(=O)CCS(=O)(=O)c1cccc2nonc12	-8.5%	-5.7%
O=C(N/N=C/C1=C(N2CCOCC2)C(=C\c2ccccc2)/CC1)Nc1ccccc1	i	-10.1%
Cc1ccc(NC(=O)CSc2sc3c(O)cc(=O)[nH]c3c2C#N)cc1C	4.6%	1.4%
Cc1cc(O)c(C2=Nc3ccccc3SC(c3ccc(Cl)cc3)C2)c(=O)o1 (stereo not drawn)	-7.1%	-7.6%
CCOC(=O)c1c(NC(=O)C2C3CCC(O3)C2C(=O)O)sc2c1CCCC2 (stereo not drawn)	-6.0%	-13.5%
O=C(CSc1nnc(COc2ccc(Cl)cc2)o1)NC1CC2CCC1C2 (stereo not drawn)	-12.3%	-6.4%
COc1cccc(C(=O)C2CCCN(Cc3ccc(F)cc3)C2)c1 (stereo not drawn)	-4.4%	4.5%
CC(C)Cn1c(SCC(=O)N(C)c2c(N)n(Cc3ccccc3)c(=O)[nH]c2=O)nc2ccccc21	-10.4%	-14.7%
COc1ccccc1CNC(=O)c1ccc(-c2ccccc2C(F)(F)F)o1	11.2µM*	?
CCOC(=O)c1cc(-c2ccccc2)nn1CCC#N	-13.4%	1.8%
CCC(C)c1ccccc1OCCn1c(CCNC(=O)C2CCCCC2)nc2ccccc21 (stereo not drawn)	-20.7%	-10.2%
COC(=O)Cn1c2ccc(Cl)cc2c2nc(C)sc21	-0.2%	-3.8%
CCc1nnc(NS(=O)(=O)c2ccc(Nc3ccc4nonc4c3[N+](=O)[O-])cc2)s1	5.6%	-1.0%
COc1ccc(-c2cc(C(F)(F)F)nc(N3CCOCC3)n2)cc1OC	-14.8%	-13.9%
O=C(CC(CC(=O)c1ccccc1)c1ccncc1)c1ccccc1	i	-2.4%
Cc1c(Cl)cnc(NC(=O)COC(=O)/C=C/c2ccco2)c1Cl	i	-1.4%
COc1cccc(/C=N/n2nnnc2N)c1O	-2.7%	-9.2%
CC(=O)Nc1nc(SCC(=O)Nc2nnc(C)s2)[nH]c(=O)c1NC(=O)c1cccs1	i	-2.3%
CC1(C)CC(=O)c2cc(C(=O)Nn3cnnc3)c(=O)n(-c3ccccc3)c2C1	.	-8.0%
COc1ccc(NC(=O)CSc2ccc(NC(C)=O)cc2)cc1S(=O)(=O)N1CCOCC1	i	-1.5%

Additional records.
Compound	VACV mCherry inh	VACV Venus inh
O=S(=O)(c1cccc(C(F)(F)F)c1)n1c(/C=C/c2ccccc2)nc2ccccc21	-15.9%	-19.7%
Cc1nn(CC(=O)NCc2ccc(F)cc2)c2ccccc12	-5.9%	-10.3%
O=C(NCCc1ccccc1)c1ccc2c(c1)N(Cc1ccccc1)C(=O)CS2=O (stereo not drawn)	-3.4%	-10.7%
CCOC(=O)CNC(=O)N1Cc2ccc(Br)cc2-n2nncc2C1	26.8%	4.4%
O=C1c2ccccc2S(=O)(=O)c2cc(C(=O)N3CCC(O)CC3)ccc21	-16.7%	-6.8%
COc1ccc(-n2c(=S)[nH]c3cc(C(=O)NCc4ccccc4)ccc3c2=O)c(OC)c1	-15.7%	-18.7%
Cc1cc(=O)[nH]c(N/N=C/c2sccc2C)n1	-11.2%	-9.5%
CCOc1ccc(-c2nnn(CC(=O)NCc3ccc(OC)cc3)n2)cc1OCC	-11.7%	-7.5%
CC(=O)Nc1cc2ccccc2oc1=O	-1.1%	-3.6%
O=c1nc(-c2ccccc2)c(-c2ccccc2)n[nH]1	i	-20.5%
COc1ccc(CNS(=O)(=O)c2ccc(F)c(C(=O)Nc3c(C)cc(C)cc3C)c2)cc1	-4.3%	-4.7%
CCn1cc(Br)c(-c2nc3ccccc3c(=O)n2N)n1	-6.7%	-3.6%
CCN(Cc1ccccc1)C(=O)Cn1c(=O)n(CCC(=O)N2CCCCC2)c(=O)c2sccc21	-11.7%	-6.0%
O=C(NCCC1=CCCCC1)c1cc(S(=O)(=O)N2CCOCC2)ccc1F	-10.4%	-1.6%
CN(CCCNC(=O)CCC(=O)N1CCOc2ccccc21)Cc1ccccc1	-14.4%	-7.4%
CCc1cccc(NC(=O)Cn2c(=O)n(CC(=O)NCCc3ccccc3)c(=O)c3ccccc32)c1	?	?
CC1CCN(C(CNS(=O)(=O)c2ccccc2)c2ccccc2)CC1 (stereo not drawn)	-5.4%	-20.8%
COCCCNc1nc(=S)[nH]c2cc(OC)c(OC)cc12	-0.3%	-14.0%
O=C(Nc1ccccc1F)Nc1cccc2ccc(O)cc12	-7.4%	-17.1%
Cc1cccc(C)c1NC(=O)C1(C)CN(S(C)(=O)=O)CC(=O)N1CCCN1CCOCC1 (stereo not drawn)	-4.5%	-4.5%
O=C(NCCc1ccccc1)C1CC(=O)N(c2ccc3c(c2)OCCO3)C1 (stereo not drawn)	-9.1%	-4.9%
O=C1CCCC(=O)C1C1c2ccccc2CCN1C(=O)CCl (stereo not drawn)	-3.7%	-15.7%
Cc1nn(Cc2cccc(C(=O)NN)c2)c(C)c1Cl	i	-17.3%
Cc1cccc(C)c1-n1nnnc1C(c1cc2ccccc2o1)N1CCC(n2c(=O)[nH]c3ccccc32)CC1 (stereo not drawn)	?	?
COc1ccnc(CN(C)C(=O)C2CCC(=O)N(Cc3cccc(C(F)(F)F)c3)C2)c1 (stereo not drawn)	-11.3%	-13.1%
O=C(O)c1ccccc1C(c1ccccc1)c1ccccc1O (stereo not drawn)	-3.0%	-3.5%
CO/N=C(\Cn1ncc(N2CCCC2)c(Br)c1=O)c1ccc(Cl)cc1	-0.2%	-19.8%
COc1cccc(CNc2nnnn2C)c1	i	-19.4%
O=c1[nH]c(C2CCN(S(=O)(=O)c3ccccc3F)CC2)nc2c1nnn2Cc1ccc(F)cc1	-10.5%	-9.3%
COc1ccc(S(=O)(=O)N2CCOCC2)cc1NC(=O)COC(=O)CCS(=O)(=O)c1ccc(C)cc1	-18.8%	-6.0%
Cc1cc(N2CCCC2)nc2c(C)cccc12	10.5%	-6.8%
CC(C)c1ccc(Nc2ncnc3c2nc2n3CCCC2)cc1	-22.4%	?
NC(=O)CCS(=O)(=O)CCN1CCCCC1	.	-21.1%
COc1ccc(C2C(=O)N(C3CCCCC3)CC(=O)N2C2CCCCC2)cc1 (stereo not drawn)	-3.7%	-9.7%
N#Cc1cccc2c1-c1ccccc1/C2=N/NC(N)=S	?	?
